Assay outcomes as filed in PubChem BioAssay.
KCNQ2 enhance: potentiators of rat KCNQ2 potassium channel. Potassium voltage-gated channel subfamily KQT member 2 (Rattus norvegicus), O88943. CHO-K1 KCNQ2, FluxOR thallium flux fluorescence; active compounds read high. B-score at 10 µM. 310,000 tested, 0.54% active. AID 2239, 2010;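 active means fluorescence ratio B-score at least 3 SD of library B-scores, with initial fluorescence B-score within 3 SD, cut at about 5.3 in these data; same plate scores as AID 2156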;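 further: B-score of peak minus minimum over baseline fluorescence ratio after K+ and Tl+ stimulus; positive B-score means potentiation of KCNQ2 with more thallium influx and brighter signal; only the inactives scoring about 0 or higher are listed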
Target sequence (O88943 whole entry, looked up): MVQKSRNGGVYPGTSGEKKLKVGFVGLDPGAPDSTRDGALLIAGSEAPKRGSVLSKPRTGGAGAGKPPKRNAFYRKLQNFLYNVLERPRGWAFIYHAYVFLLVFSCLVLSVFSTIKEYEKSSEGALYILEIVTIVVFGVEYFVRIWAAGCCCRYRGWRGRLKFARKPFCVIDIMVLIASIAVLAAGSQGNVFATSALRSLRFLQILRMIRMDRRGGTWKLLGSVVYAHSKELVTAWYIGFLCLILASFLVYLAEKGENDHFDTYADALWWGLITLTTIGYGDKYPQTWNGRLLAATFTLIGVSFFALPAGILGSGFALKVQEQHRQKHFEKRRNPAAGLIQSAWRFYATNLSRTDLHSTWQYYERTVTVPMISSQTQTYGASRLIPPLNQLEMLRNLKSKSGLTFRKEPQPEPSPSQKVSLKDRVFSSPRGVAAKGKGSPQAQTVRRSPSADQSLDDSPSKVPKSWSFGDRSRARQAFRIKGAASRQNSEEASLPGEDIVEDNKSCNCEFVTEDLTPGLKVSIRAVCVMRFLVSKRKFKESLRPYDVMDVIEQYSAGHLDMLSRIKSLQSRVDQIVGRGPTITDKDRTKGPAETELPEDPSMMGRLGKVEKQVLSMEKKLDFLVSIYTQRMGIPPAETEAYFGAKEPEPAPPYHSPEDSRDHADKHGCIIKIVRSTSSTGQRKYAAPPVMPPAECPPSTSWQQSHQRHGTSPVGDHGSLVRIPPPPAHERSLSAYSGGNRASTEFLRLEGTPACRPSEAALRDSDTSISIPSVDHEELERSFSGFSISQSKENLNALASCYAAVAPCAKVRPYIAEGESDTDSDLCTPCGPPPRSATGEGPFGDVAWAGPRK
KCNQ2 enhance baseline: recorded beside KCNQ2 enhance, whose call it bears; B-score; compound at 10 µM; measured here: initial fluorescence intensity artifact check;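 brightness before thallium and not channel activity; 0 = typical well and far values either way flag optical interference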
Starred values were filed as active, the others as inactive.

mol	KCNQ2 enhance	KCNQ2 enhance baseline
NS(=O)(=O)c1ccc(NC(=S)Nc2ccc(OCc3ccccc3)cc2)cc1	4.2	0.47
CCCCCCCCOC(=O)C1=C(C)Nc2nnnn2C1c1cccs1 (stereo not given)	1.3	0.19
CCC(C)NC(=O)c1ccc(CS(=O)(=O)c2ccc(OC)cc2)o1 (stereo not given)	3.7	-3.6
Cc1ccc(OCCCCN2CCC(C)CC2)c(Br)c1	0.62	0.34
CSCCCNC(=O)c1ccc(OC2CCN(C(=O)c3cccnc3)CC2)cc1	1.9	1.3
O=C(CCC(=O)N1CCN(c2cccc(Cl)c2)CC1)c1cccs1	0.45	-1.3
COc1cc(C(=O)NCC(=O)OCC(=O)Nc2nnc(-c3ccccc3)o2)cc(OC)c1OC	0.37	0.59
O=C(CSc1ccc2nnc(-c3ccncc3)n2n1)NCc1ccco1	0.29	2.2
CS(=O)(=O)N(CCc1ccccc1)CC(=O)NCC1CCCO1 (stereo not given)	0.04	-0.27
C/C(=N\NC(=O)c1nc2ccccn2c1C)c1cc2ccccc2o1	0.96	-1.4
COc1ccc(S(=O)(=O)NC(C)C(=O)NCc2ccco2)cc1OC (stereo not given)	0.55	0.47
O=C(NCC1CCCO1)c1ccccc1OCc1ccc(F)cc1 (stereo not given)	0.92	0.1
Cn1c(N)c(C(=O)COC(=O)CCc2ccccc2)c(=O)n(C)c1=O	0.67	-0.58
CN(CCC#N)C(=O)c1ccc(CNS(=O)(=O)c2ccc(F)cc2)cc1	0.07	1.1
CC(NC(=O)CCNC(=O)c1ccccc1Cl)c1ccc(-n2ccnc2)cc1 (stereo not given)	0.26	-0.93
CCc1ccc(NC(=O)Cn2nnc(C(=O)NCCc3ccc(OC)c(OC)c3)c2N)cc1	0.98	0
CCNc1cc(S(=O)(=O)C(F)(F)F)ccc1N	1.9	-1.1
Cc1ccc(CSc2nccc(-c3c(C)nc4ccccn34)n2)cc1	0.14	0.8
O=c1[nH]c(C2CCN(S(=O)(=O)c3ccccc3F)CC2)nc2c1nnn2Cc1ccc(OC(F)(F)F)cc1	0.08	0.32
N#Cc1ccc(/C=N/NC(=O)c2ccccc2F)cc1	0.18	-0.01

Structures from the list above with a thiophene ring, fused or not, in the order listed:
mol	KCNQ2 enhance	KCNQ2 enhance baseline
CCCCCCCCOC(=O)C1=C(C)Nc2nnnn2C1c1cccs1 (stereo not given)	1.3	0.19
O=C(CCC(=O)N1CCN(c2cccc(Cl)c2)CC1)c1cccs1	0.45	-1.3

Retrieved by compound from the entries so far (three):
mol	KCNQ2 enhance	KCNQ2 enhance baseline
O=C(NCC1CCCO1)c1ccccc1OCc1ccc(F)cc1 (stereo not given)	0.92	0.1
CC(NC(=O)CCNC(=O)c1ccccc1Cl)c1ccc(-n2ccnc2)cc1 (stereo not given)	0.26	-0.93
O=C(CSc1ccc2nnc(-c3ccncc3)n2n1)NCc1ccco1	0.29	2.2

The list goes on:
mol	KCNQ2 enhance	KCNQ2 enhance baseline
Cc1ccc(Cl)cc1NC(=O)CCCN1C(=O)c2cccnc2C1=O	0.26	2.9
CC(=O)Nc1sc(N/N=C/c2ccc(N(C)C)cc2)nc1-c1ccc(C)cc1	0.06	-0.38
Cc1cccn2c(=O)c(/C=C(\C#N)C(=O)NCc3ccccc3)c(N3CCC(C(N)=O)CC3)nc12	0.9	-1.9
O=C1/C(=C\c2cccc(O)c2O)SC(=S)N1Cc1ccccc1	0.2	-0.39
COc1ccccc1N/C(=N/S(=O)(=O)c1ccc(C)cc1)c1ccccc1	0.02	-0.13
COc1cc(OC)cc(C(C(=O)NCc2ccccc2)N(Cc2ccco2)C(=O)c2ccno2)c1 (stereo not given)	1.9	0.12
Cc1ccc2[nH]c3c(N4CCc5ccccc5C4)ncnc3c2c1	1.1	-1.5
COc1ccc(CNC(=O)Nc2ccc(C)cc2)cc1	1.2	0.52
CCCCCCCCC(=O)N/N=C(\C)c1ccco1	1.8	-0.49
S=C(NCC1CCCO1)Nc1ccc(Cl)cc1 (stereo not given)	0.24	1.1
C(=N\n1cnnc1)/c1ccc(OCc2cccc3ccccc23)cc1	0.35	0.56
N#Cc1nc(COc2ccccc2Cl)oc1NCc1cccnc1	0.66	-0.02
Cc1cc(-c2cccs2)c2c(n1)sc1c(=O)[nH]c(=O)[nH]c12	0.87	-1.2
Cc1cn(C(=O)CN2C(=O)c3ccccc3C2=O)c(C)n1	0.14	-1.1
Clc1ncccc1OCc1ccccc1	1.2	1.8
N#Cc1c2n(c(=S)n(-c3ccccn3)c1=O)CCCCC2	1.4	2
O=C(C1=C[C@H](c2csc3ccccc23)C[C@H](OCc2ccc(CO)cc2)O1)N1CCOCC1	2.2	1.1
CCc1nc2cccnc2n1-c1ccc(C(=O)O)cc1	0.06	0.73
Cc1nc(SCC(=O)Nc2cccc(C(=O)O)c2)n[nH]1	1.1	0.84
Cc1cc(C)nc(N/N=C/c2ccccc2)n1	0.02	-0.54
COc1ccc(Cn2c(=O)[nH]c3cc(C(=O)NC4CCN(Cc5ccccc5)CC4)ccc32)cc1	0.17	0.56
C=C(C)c1cccc(C(C)(C)NC(=O)NC2CC(C)(C)NC(C)(C)C2)c1	0.45	0.16
COCCOC(=O)c1c(C)oc2ccc(NS(=O)(=O)c3ccccc3)cc12	0.1	1.1
O=c1nc2ccc(Cl)cn2c2ccc(S(=O)(=O)N3CCOCC3)cc12	0.3	-0.25
CCOC(=O)c1cc(NC(=O)N(CC)CC)c(C)nc1C	0.56	1.7
COc1ccc(-c2cc3c(=O)n(CC(=O)Nc4ccc(Cl)cc4)ncn3n2)cc1	0.8	0.74
COCCNC(=O)c1cc(-c2ccccc2)nn1CC1CC(c2cccc([N+](=O)[O-])c2)=NO1 (stereo not given)	0.74	0.32
COCCCn1c(SCC(=O)NC(C)(C)C)nnc1-c1cccs1	0.45	-0.03
COc1ccc(NC(=S)N2c3ccccc3CC2C)cc1OC (stereo not given)	0.72	1.5
C/C(=N\NC(=O)c1nn(C)c(C)c1Br)c1cccc(NC(=O)c2ccoc2C)c1	0.72	0.69
Cn1cc(C(=O)OCC2CCN(CCNS(C)(=O)=O)CC2)c2ccccc21	0.65	0.16
CCOC(=O)N1CCN(C(=O)CSc2nc(=O)n3ccc(C)cc3n2)CC1	0.06	-1.6
Nc1cccc(CN2CCCC2)c1	1.3	-0.47
Cc1ccc(S(=O)(=O)Nc2c(NC3CCCCC3)c3ccccc3oc2=O)cc1C	0.66	-0.01
Cc1ccc(NC(=O)CN2C(=O)c3ccccc3S2(=O)=O)c(C)c1	0.03	0.17
COc1cccc(CNC(=O)c2nnn(CC(=O)Nc3cc(Cl)ccc3C)c2N)c1	1.1	-2.1
CC1=CCC2C(=O)N(c3ccc(N4CCOCC4)cc3)C(=O)C2C1 (stereo not given)	1.3	0.66
Cc1ccc(/C(O)=C2\C(=O)C(=O)N(C)C2c2ccccc2[N+](=O)[O-])cc1 (stereo not given)	0.83	-0.91
COc1ccc(C2(c3ccc(OC)cc3)NC(=O)N(CC(=O)Nc3ccc(OC(F)F)cc3)C2=O)cc1	0.72	-0.55
Cc1ccc(S(=O)(=O)CCC(=O)OCC(=O)Nc2cc(S(=O)(=O)N3CCOCC3)ccc2C)cc1	1.6	-1.3

A run of entries from further up:
mol	KCNQ2 enhance	KCNQ2 enhance baseline
COc1ccc(Cn2c(=O)[nH]c3cc(C(=O)NC4CCN(Cc5ccccc5)CC4)ccc32)cc1	0.17	0.56
C=C(C)c1cccc(C(C)(C)NC(=O)NC2CC(C)(C)NC(C)(C)C2)c1	0.45	0.16
COCCOC(=O)c1c(C)oc2ccc(NS(=O)(=O)c3ccccc3)cc12	0.1	1.1

Other records follow.
mol	KCNQ2 enhance	KCNQ2 enhance baseline
O=C(Nc1ccccc1F)Nc1ccccc1OC(F)F	2.1	-0.13
CCOC(=O)N1CCN(C(=O)/C(=C/c2ccc(OC)c(OC)c2)NC(=O)c2ccccc2)CC1	1.4	0.11
COc1ccccc1-c1noc(CSc2nc(C)cc(=O)[nH]2)n1	1.8	-0.97
CCN(CC)C(=O)CSc1nnc(-c2cnccn2)n1-c1ccccc1	0.44	1.3
CC(C)C(=O)Nc1cccc(NC(=O)c2ccc([N+](=O)[O-])cc2Cl)c1	0.02	-2.5
COc1cc(/C=N\Nc2nncn2N)ccc1OC(C)=O	0.62	-0.01
O=C(Nc1ccc(Cl)c(C(F)(F)F)c1)NC1CC2CCCC(C1)N2C1CC1 (stereo not given)	0.09	-1.4
CCN1C(=O)S/C(=C/c2ccc(Sc3nc4ccccc4[nH]3)o2)C1=O	0.34	0.03
COCCN(C(=O)c1ccccc1OC)c1nnc(C)s1	0.02	0.73
O=C(CSc1nc2c(c(=O)[nH]1)CCC2)Nc1cccc(Cl)c1	0.88	-0.71
Cc1ccc(S(=O)(=O)N(C)C)cc1NC(=O)C(C)NC(C)c1cccs1 (stereo not given)	0.35	2
O=C(CN(c1ccc(F)cc1)S(=O)(=O)c1ccc2c(c1)OCCO2)N1CCOCC1	0.59	1.5
Cc1ccc(C(=O)NCC(=O)N2CCc3ccccc3C2)cc1C	1.6	-1.2
Cn1cccc1CC(=O)N/N=C/c1ccc([N+](=O)[O-])cc1	0.03	-0.01
CCCNC(=O)c1ccc2c(=O)n3c(-c4ccc(C)cc4)csc3nc2c1	0.5	0.07
Nc1cc(OC(=O)c2c(F)cccc2Cl)nn1S(=O)(=O)c1ccccc1	0.98	0.66
CC(=O)n1c2c(c3ccccc31)OC(N)=C(C#N)C2c1ccc(C(C)C)cc1 (stereo not given)	0.24	0.8
Cc1cc(/C(=N/O)C(C)(C)NO)ccc1Cl	0.34	-3.5
Fc1ccc(/C=N/NC(=S)Nc2ccc(Cl)cc2)cc1F	1.4	0.76
Cc1nc(-c2ccc(NC(=O)c3cccs3)cc2)cs1	0.03	0.03
CC(C)c1ccc(NC(=O)C(=O)C2C(=O)Nc3ccccc32)cc1 (stereo not given)	1	0.21
COc1cc(S(=O)(=O)N(Cc2ccccn2)Cc2ccccc2Cl)ccc1-n1cnnn1	0.65	-0.53
O=C(Cn1cnc([N+](=O)[O-])n1)N/N=C/c1ccc2ccccc2c1	0.16	0.58
COc1ccc(C2c3ccsc3CCN2C(=O)NC(C)(C)C)cc1 (stereo not given)	0.68	-0.04
O=C1c2cccc3c(N4CCOCC4)c([N+](=O)[O-])cc(c23)C(=O)N1c1cccc2ccccc12	0.86	-0.81
CC(=O)Nc1ccccc1-c1nc2ccc(C(=O)N3CCN(c4cc(C)ccc4C)CC3)cc2[nH]c1=O	0.76	-0.47
CCc1ccc(CCC(=O)Nc2ccc(Br)cc2)o1	0.86	-1.6
CCOc1cccc(N2C(=O)CC(N3CCC(C(N)=O)(N4CCCCC4)CC3)C2=O)c1 (stereo not given)	0.97	-1.2
O=C(NCCCN1CCN(c2cccc(Cl)c2)CC1)c1nc(-c2ccncc2)no1	1.6	-0.57
O=C(CNC(=O)[C@@H]1Cc2ccccc2CN1)NC1CCCC1	1.6	0.37
Cc1ccc(-c2nnc(N3CCOCC3)c3ccccc23)cc1S(=O)(=O)N(C)C	0.17	-1.3
COc1cc(/C=N/Nc2nc3ccccc3o2)cc(OC)c1O	0.28	-0.49
O=C(O)C1CCCCC1C(=O)NCCCn1ccnc1 (stereo not given)	0.19	1.6
CC(C)CCN(C(=O)c1csnn1)C(C(=O)NC1CCCC1)c1ccc(F)cc1 (stereo not given)	0.27	0.57
O=C(NCCS(=O)(=O)N1CCN(c2cccc(Cl)c2)CC1)c1ccco1	1.6	-0.02
CCNC(=O)CNC(=O)c1nn(Cc2ccccc2)c(=O)c2ccccc12	1.1	0.01
O=C(CN(C(=O)c1csnn1)c1cccc(C(F)(F)F)c1)NCCc1ccccc1	0.72	0.59
COc1ccc(-c2noc(C3CCCN(C(=O)c4c(F)cccc4F)C3)n2)cc1OC (stereo not given)	1.1	-0.15
CCCCCC(=O)NC(=S)Nc1cccc(-c2nc3ncccc3o2)c1	0.28	-2.8
Cc1ccc(OCCCCCN2CCOCC2)cc1	0.86	0.24
COc1ccc(CN(C)C(=O)C2CSC3(C)CCC(=O)N23)cc1 (stereo not given)	0.59	0.88
O=c1c2ccccc2n(CC(O)CN2CCCCC2)c2ccccc12 (stereo not given)	0.22	0.81
CCOc1ccc(CN(C)C(=O)c2ccc(=O)[nH]c2)cc1	1.3	1.9
CCCC(=O)Nc1cc(OC)c(OC)cc1C(=O)O	0.2	-0.34
CC1(C)Cc2nc(NCCCO)c(C#N)cc2CO1	0.95	0.31
CC1(c2ccccc2)NC(=O)N(CC(=O)Nc2ccccc2N2CCCC2)C1=O (stereo not given)	0.15	-0.48
CC(=O)N1c2ccc(S(=O)(=O)N(C)CC(=O)NC3CCCCC3C)cc2CC1C (stereo not given)	0.54	0.43
CC1CN(CC(=O)NCc2ccc(F)cc2)CC(C)O1 (stereo not given)	0.77	0.63
COc1ccc(OC)c(CNC(=O)C2CCN(S(=O)(=O)N3CCC(C)CC3)CC2)c1	0.62	-1.1
COc1cccc2cc(-c3cn4cccc(C)c4n3)c(=O)oc12	0.04	0.24
Cc1onc(-c2ccccc2)c1C(=O)NNC(=S)NC(=O)/C=C/c1cccs1	0.43	-1.5
CC1CCN(S(=O)(=O)N2CCC(C(=O)NCc3ccc4c(c3)OCO4)CC2)CC1	0.08	0.93
Cc1cccc(NC(=O)Cn2cc([N+](=O)[O-])cn2)n1	0.63	-0.09

This is a subset; count on the stated rates, not on these rows.
